Assay outcomes deposited in PubChem by National Center for Advancing Translational Sciences (NCATS).
SARS PLP yeast = inhibitors of SARS-CoV papain-like protease in yeast; S. cerevisiae expressing SARS-CoV PLpro, growth rescue; control for the full effect not named in the record; Potency, µM (titrated, usually from 32.9 µM), for inactives: at the highest dose activity, positive = growth rescue; 0.19% of 330,000 active; AID 485353; also: 0% is about no effect; nearly all actives have a fitted effect of over 55% in size; growth read by luminescence after 48 h
StopGo reporter = FMDV 2A StopGo reporter, luciferase signal; human cells with a luciferase reporter of 2A StopGo recoding; control for the full effect not named in the record; Potency, µM (top dose mostly 57.9 µM), without a hit: top-dose signal change, negative = less light; 1.2% of 410,000 active; active = well fitted falling curve with a large enough effect; inconclusive = small, poorly fitted or top-dose-only effect; inactive = no such curve, though single readings can be large or run the other way; tested in HEK293T cells; also: % is scaled to controls: 0 for no effect and ±100 for the full control effect; nearly all actives have a fitted effect of over 45% in size; luciferase light after 4 h
Marburg entry inh = blocks Marburg virus binding to or entry into cells | Marburg virus pseudotyped entry inhibition, cell reporter; control for the full effect not named in the record; about a third of the inactives were read at about 46 µM | Potency, µM (highest dose often 37.8 µM), for the others: at the highest dose activity change, negative = inhibition, usual class: inhibitors | 1.8% of 300,000 active | AID 540276; active = well fitted inhibition curve with a large enough effect; inconclusive = small, poorly fitted or top-dose-only effect, or effect the other way; inactive = flat fitted curve, though single readings scatter; tested in HEK293 cells; about a fifth of its hits are not listed in these tables; also: % is scaled to controls: 0 for no effect and ±100 for the full control effect; luciferase read-out
Cruzain noTriton = blocks cruzain activity in detergent-free assay | 2.3% of 200,000 active | AID 1476 | purified cruzain, Z-FR-AMC fluorescence, no detergent | Potency, µM, for inactives: max response, negative = inhibition, most hits filed as inhibitors; active = well fitted curve in the direction sought with a large enough effect; inconclusive = small, poorly fitted or top-dose-only effect, or another doubt; inactive = no such curve, though single readings can be large; an effect the other way counts as inactive or inconclusive;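 also: plate controls were enzyme without inhibitor for no effect and buffer without enzyme for full effect; nearly all actives have a fitted effect of over 40% in size; top concentration of the series not given in the record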
Target sequence (P25779 123-467 limits assumed): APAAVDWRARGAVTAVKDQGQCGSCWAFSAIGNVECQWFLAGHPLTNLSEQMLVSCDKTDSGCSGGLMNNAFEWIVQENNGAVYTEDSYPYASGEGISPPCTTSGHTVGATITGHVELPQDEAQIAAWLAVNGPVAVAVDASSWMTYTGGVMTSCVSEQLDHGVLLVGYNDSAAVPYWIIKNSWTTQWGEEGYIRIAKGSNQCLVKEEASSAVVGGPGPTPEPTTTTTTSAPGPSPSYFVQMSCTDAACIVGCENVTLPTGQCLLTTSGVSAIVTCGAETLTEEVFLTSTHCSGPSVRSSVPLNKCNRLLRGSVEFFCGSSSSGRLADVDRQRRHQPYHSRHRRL
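Detergent-free condition (0.00005% Triton X-100) in acetate buffer pH 5.5 with DTT. 1.5 nM enzyme and compound were pre-mixed 15 min, then 2 uM Z-FR-AMC substrate added; reaction progress from fluorescence change between first and third reads (60 s).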
NS1 function inh = influenza NS1 inhibition; Potency, µM (highest dose often 46.1 µM), for inactives: at the highest dose activity, positive = more growth; AID 2326; S. cerevisiae slowed by influenza A NS1, growth recovery by OD600; 0.4% of 270,000 active; also: actives are rising curves; nearly all actives have a fitted effect of over 50% in size
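Compounds were scored for reversing the slow growth caused by influenza A NS1 in S. cerevisiae, measured by optical density at 600 nm. Assay medium contained 2% galactose at pH 6.0; NS1-free yeast of the same strain were the positive control.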
Cruzain Triton = blocks cruzain activity in presence of Triton detergent; P25779; AID 1478; 0.43% of 200,000 active; Potency, µM, without a hit: max response, negative = inhibition, hits mostly inhibitors; purified cruzain, Z-FR-AMC fluorescence, 0.01% Triton; active = well fitted curve in the direction sought with a large enough effect; inconclusive = small, poorly fitted or top-dose-only effect, or another doubt; inactive = no such curve, though single readings can be large; an effect the other way counts as inactive or inconclusive;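 also: plate controls were neutral wells for no effect and buffer without enzyme for full effect; nearly all actives have a fitted effect of over 40% in size; top concentration of the series not given in the record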
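Detergent-containing arm of a paired screen for aggregation-based inhibition: 0.01% Triton X-100 present. Cruzain at 1.5 nM cleaved 2 uM Z-FR-AMC at pH 5.5 with 5 mM DTT; AMC fluorescence gain over 60 s measured activity.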
LASV entry inh = blocks Lassa virus binding to or entry into cells; Lassa virus pseudotype entry inhibition, cell reporter; control for the full effect not named in the record; Potency, µM (doses to about 37.9 µM), for the others: at the top dose activity change, negative = inhibition, usual class: inhibitors; 1.2% of 300,000 active; AID 540256; active means well fitted inhibition curve with a large enough effect; inconclusive means small, poorly fitted or top-dose-only effect, or effect the other way; inactive means flat fitted curve, though single readings scatter; tested in HEK293 cells; also: % is scaled to controls: 0 for no effect and ±100 for the full control effect; nearly all actives have a fitted effect of over 50% in size; luciferase read-out
RE007 growth inh = less growth of the S. pombe RE007 Vpr strain; S. pombe RE007 Vpr strain, BacTiter-Glo ATP luminescence, 24 h; control for the full effect not named in the record; Potency, µM (doses to about 92.2 µM), for the others: at the highest dose activity change, negative = less growth; 0.21% of 360,000 active; active = well fitted falling curve with a large enough effect; inconclusive = small, poorly fitted or top-dose-only effect; inactive = no such curve, though single readings can be large or run the other way;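 also: % is scaled to controls: 0 for no effect and ±100 for the full control effect; nearly all actives have a fitted effect of over 50% in size; the assay follows cell death caused by Vpr and the record does not say whether a fall means rescue or toxicity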
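Fission yeast strain RE007, carrying one chromosomally integrated HIV-1 vpr copy, was seeded at OD 0.01 in PMG+AL medium with 23 nL pinned compound. After 24 h at 30 °C and 99% humidity, viability was read by BacTiter-Glo luminescence.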
The depositor's hits bear a star; u = inconclusive; x = not tested or not shown; & = joins results of further samples; [ ] = remark or other dose. Unless noted, calls follow the shape of the dose curve; as a rule, active means well fitted rising curve with a large enough effect; inconclusive means small, poorly fitted or top-dose-only effect; inactive means no such curve, though single readings can be large or run the other way. Potency is read from the fitted curve at half-maximal effect.

#	structure	SARS PLP yeast	StopGo reporter	Marburg entry inh	Cruzain noTriton	NS1 function inh	Cruzain Triton	LASV entry inh	RE007 growth inh
1	CC(C)(C)c1ccc(C(=O)NN2C(=O)CSC2=S)cc1	0%	-13%	x	x	10%	x	x	u
2	Cc1ccc(N/N=C(\C#N)C(=N)N2CCOCC2)cc1	-21%	39%[activator]	20%[46.1 µM]	-7%	5%	-6.2%	u	-5%
3	CCn1c(N2CCN(CC(=O)c3c(C)n(C)c4ccccc34)CC2)nc2c1c(=O)[nH]c(=O)n2C	-14%	u	-22%	-4%	-12%	-2.5%	-5%	-9%
4	CCCCCC(=O)Nc1cccc(C2=NOC3(C2)C[C@@H](C(N)=O)N(C(=O)c2cc([N+](=O)[O-])cc([N+](=O)[O-])c2)C3)c1 (stereo not given in full)	-5%	-13%	x	x	-33%	x	x	-15%
5	CCC1CCCCN1S(=O)(=O)c1ccccc1[N+](=O)[O-] (stereo not given)	0%	-16%	u	x	-3%	x	-13%	-1%
6	CCCCn1c(SCC2CCCCO2)nc2cc(S(N)(=O)=O)ccc21 (stereo not given)	-3%	0%	4%	-1%	-4%	-4.9%	-14%	0%
7	N#CC1=C(SCc2ccccc2Cl)NC(=O)C(C(N)=O)C1 (stereo not given)	2%	x	-1%	-4%	-12%	5.0%	-16%	11%
8	Cc1cc(Sc2nnc(N)s2)c2ccccc2n1	-1%	14µM*	x	x	10%	x	x	11%
9	Cc1c(OCC(=O)N(C)c2ccccc2)ccc2c3c(c(=O)oc12)CCC3	-3%	-1%	-21%[46.1 µM]	x	-37%	x	-22%[46.1 µM]	-15%
10	CCCCS(=O)(=O)N1CCCC(C(=O)NCCc2ccccc2)C1 (stereo not given)	2%	6%	x	x	3%	x	x	5%
11	Cc1ccc(OC(=O)c2cncc(Br)c2)c(C)c1	-1%	0%	x	x	-8%	x	x	-5%
12	CCOc1ccc(Cn2c(C)nc([N+](=O)[O-])c2SCC(O)CCl)cc1[N+](=O)[O-] (stereo not given)	-1%	x	13%	-4%	2%	1.0%	-14%	18%
13	C[C@@H](NC(=O)/C(C#N)=C/c1ccc(O)c(O)c1)c1ccccc1	x	-19%&-6%	u	7%&2%	-7%	-4.6%&-3.4%	-27%	0%[18.4 µM]
14	N#Cc1cc2ccccc2nc1SCC(=O)NC1CC1	10%	1%	15%[46.1 µM]	x	-10%	x	-16%	12%
15	COc1ccc(C2=CC(c3c(C)nn(-c4ccccc4)c3Cl)n3nnnc3N2)cc1OC (stereo not given)	-1%	18µM*	u	u	16%	-6.4%	u	18%
16	CCn1c(/C(C#N)=C(\O)CCc2ccccc2)nc2ccccc21	2%	13%	-8%	-10%	0%	-4.0%	20%	10%
17	CSC(=S)NCc1cccnc1	0%	-11%	u	x	1%	x	u	-11%
18	O=C(CCCn1cnc([N+](=O)[O-])n1)Nc1cccc(Cl)c1Cl	-16%	-14%	4%	-3%	4%	-4.0%	1%	-10%
19	CCOC(=O)CC1(NC(=O)C2CCC(=O)N(Cc3ccccc3OC)C2)CCCCC1 (stereo not given)	5%	8%	16%	x	4%	x	-1%	3%
20	COc1cccc(/C=C/C(=O)Nc2ccc3c(c2)OCCO3)c1OC	-2%	-61%	u	x	x	x	u	-13%
21	c1csc(C(c2nnnn2C2CCCCC2)N2CCCC3(CCCCC3)C2)c1 (stereo not given)	23%	-1%	u	u	9%	-6.0%	-1%	-6%
22	COc1ccc(N2C(=O)CC(c3cc(OC)c(OC)c(OC)c3)CC2=O)cc1	1%	-7%	u	x	6%	x	u	0%
23	Cc1c(NC(=O)CSc2ccc3c(c2)OCCO3)c(=O)n(-c2ccccc2)n1C	8%	-18%	-3%	-8%	8%	-3.9%	3%	20%
24	CCc1ccc(S(=O)(=O)c2nnn3c2nc(NCc2ccccc2OC)c2cc(Cl)ccc23)cc1	x	10%	u	-14%	x	-0.7%	x	x
25	CCOC(=O)C1CCN(S(=O)(=O)c2cc(F)ccc2OC)CC1	-1%	-10%	19%[46.1 µM]	x	-6%	x	-1%	12%

Quoted at random: 5 records from the list, in no set order.
#	structure	SARS PLP yeast	StopGo reporter	Marburg entry inh	Cruzain noTriton	NS1 function inh	Cruzain Triton	LASV entry inh	RE007 growth inh
14	N#Cc1cc2ccccc2nc1SCC(=O)NC1CC1	10%	1%	15%[46.1 µM]	x	-10%	x	-16%	12%
4	CCCCCC(=O)Nc1cccc(C2=NOC3(C2)C[C@@H](C(N)=O)N(C(=O)c2cc([N+](=O)[O-])cc([N+](=O)[O-])c2)C3)c1 (stereo not given in full)	-5%	-13%	x	x	-33%	x	x	-15%
15	COc1ccc(C2=CC(c3c(C)nn(-c4ccccc4)c3Cl)n3nnnc3N2)cc1OC (stereo not given)	-1%	18µM*	u	u	16%	-6.4%	u	18%
13	C[C@@H](NC(=O)/C(C#N)=C/c1ccc(O)c(O)c1)c1ccccc1	x	-19%&-6%	u	7%&2%	-7%	-4.6%&-3.4%	-27%	0%[18.4 µM]
22	COc1ccc(N2C(=O)CC(c3cc(OC)c(OC)c(OC)c3)CC2=O)cc1	1%	-7%	u	x	6%	x	u	0%

(list continues)
#	structure	SARS PLP yeast	StopGo reporter	Marburg entry inh	Cruzain noTriton	NS1 function inh	Cruzain Triton	LASV entry inh	RE007 growth inh
26	CSCCC(NC(=O)c1ccccc1)C(=O)Nc1ccc(C)cc1 (stereo not given)	18%	4%	-2%	-18%	u	0.4%	2%	-6%
27	NC(=O)[C@@H]1CCCN1C(=O)c1ccc2nc(Cc3cccc(Cl)c3)oc2c1	-5%	5%	13%[46.1 µM]	x	-5%	x	23%[46.1 µM]	-14%
28	Cc1ccc(-n2nc(C)c(C3C(C#N)=C(N)Oc4c3c(=O)oc3ccccc43)c2Cl)cc1 (stereo not given)	-9%	x	x	20µM*	13%	-0.2%	x	x
29	COc1cc(NC(=S)NN2CCN(C)CC2)cc(OC)c1OC	0%	-2%	-16%[46.1 µM]	x	13%	x	8%[46.1 µM]	13%
30	CCOC(=O)c1ccc(NC(=O)c2ccc3c(c2)C(=O)N(CC2CCCO2)C3=O)cc1 (stereo not given)	-2%	28µM*	26%	x	16%	x	-4%	-11%
31	COc1ccccc1N1CCN(S(=O)(=O)c2ccc(-c3ccc(=O)[nH]n3)o2)CC1	-7%	-2%	x	x	5%	x	x	-9%
32	Cc1cc(C)cc(Oc2c(C(F)(F)F)oc3cc(OCC(=O)O)ccc3c2=O)c1	0%	-24%	x	x	7%	x	x	-5%
33	COc1ccc(OC)c(S(=O)(=O)Nc2cccc3ccc(O)cc23)c1	x	11%	12%	x	x	x	28%	12%
34	COCCCn1c(C(=O)N2CCOCC2)cc2c(=O)n3ccccc3nc21	-2%	-10%	x	x	1%	x	x	7%
35	CCOC(=O)C1CCN(C(=O)CSc2n[nH]c(-c3ccc(OC)cc3)n2)CC1	x	-14%	x	-8%	x	-1.5%	-22%[46.1 µM]	x
36	COc1cc(C(=O)COC(=O)C2CCN(c3ccc(C(F)(F)F)cn3)CC2)ccc1OC(F)F	-1%	10%	-4%	x	x	x	8%[46.1 µM]	-2%
37	O=C(c1ccco1)N1CCN(S(=O)(=O)c2ccc(S(=O)(=O)NC3CC3)cc2)CC1	12%	x	-2%	0%	0%	3.1%	0%	-1%
38	CCCCCC1CC(CC(=O)Nc2ccc([N+](=O)[O-])cc2)OC1=O (stereo not given)	-1%	1%	12%	x	5%	x	-2%	-11%
39	O=C(Cc1ccccc1)N1CCN(Cc2cccnc2)CC1	16%	13%	12%	-5%	9%	8.6%	-7%	-2%
40	CCC1C(c2cc(OC)c(OC)c(OC)c2)c2cc3c(cc2OC1N1CCCC1)OCO3 (stereo not given)	x	-8%	u	x	x	x	8.9µM*	15%
41	CC(=O)c1ccc(NC(=O)CC2S/C(=N/N=C3CCCCCC3)NC2=O)cc1 (stereo not given)	-1%	-18%	x	x	2%	x	x	12%
42	COc1ccc(C2=C/C(=C\c3cccc(OC(C)=O)c3)C(=O)O2)cc1	0%	4%	-1%	-19%	3%	-4.7%	7%	-2%
43	Cc1nc2nc(-c3ccccc3)[nH]n2c(=O)c1C	6%	82%[activator]	-2%	-1%	-2%	0.0%	3%	2%
44	CCOC(=O)C1=C(CSc2nc(CC)c(C)cc2C#N)OC(N)=C(C#N)C1c1ccccc1 (stereo not given)	-2%	0%	-23%	-18%	11%	-6.4%	-19%	-1%
45	Nc1nc(SCC(=O)Nc2ccccc2Sc2ccccc2)n[nH]1	2%	-19%	-4%	-4%	2%	0.9%	-19%	8%
46	Cc1cc(C)c(NC(=O)CSc2nnc(-c3ccco3)n2N)c(C)c1	3%	16%	-8%	9%	4%	1.7%	0%	-4%
47	Cn1c(SCc2ccccc2)nc2c1c(=O)[nH]c(=O)n2C	-1%	7%	x	x	1%	x	x	8%
48	CCOn1c(=O)c(C)[n+]([O-])c2ccccc21	11%	-13%	2%	-15%	-2%	-5.4%	-4%	16%
49	COc1ccc(CCNC(=O)C(=O)c2c(C)n(C)c3ccccc23)cc1OC	6%	-6%	x	x	9%	x	x	-10%
50	CCC1CCCCN1C(=O)CSc1n[nH]c(-c2ccccc2)n1 (stereo not given)	x	15%	x	-14%	x	-0.3%	-15%[46.1 µM]	x
51	CC(=O)c1ccc(NC(=O)C2Cc3ccccc3N2C(=O)c2ccccc2)cc1 (stereo not given)	x	-15%	x	-1%	x	0.5%	29%[46.1 µM]	x
